From PubChem BioAssay
Menin MLL FP FL: menin-MLL binding inhibition, fluorescein peptide; Fluorescence polarization, fluorescein-MLL peptide displacement from menin; 290,000 tested, under 10 active; FP activity change, % at 61.4 µM; inconclusive = falling polarisation curve, or a change in total fluorescence; inactive = total fluorescence flat and polarisation flat or rising; no compound was filed as active; the % refers to the polarisation; negative = inhibition;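 note: % of control where 0% means no effect; inhibitors lower the polarisation; unlabelled MLL peptide was the positive control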
gsp antag: antagonizes gsp, the McCune-Albright syndrome mutation; gsp-mutant cells, cAMP HTRF, 30 min; control for the full effect not named in the record; Potency, µM (top dose mostly 76.9 µM), inactives show top-dose activity change, negative = inhibition, hits mostly inhibitors; hit rate 0.4% among 340,000; active = falling curve of any shape with a large fitted effect; inconclusive = falling curve, mostly with a smaller effect; inactive = flat or rising curve; cell line not stated here;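 note: intracellular cAMP measured with PDE inhibitor Ro 20-1724 present during compound exposure; potency is the fitted concentration of half-maximal effect; % is set by controls: 0 for no effect and ±100 for the full control effect; nearly all actives have a fitted effect of over 65% in size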
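Cells in G418 medium, seeded 16-24 h, 37C; buffer exchange to DPBS + 1 mM CaCl2, 0.5 mM MgCl2, 0.05% BSA; cpds in DMSO + […] (300 uM stock), 30 min 37C; HTRF cAMP detection.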
D2 ag: activates the human D2 dopamine receptor; P14416; DiscoveRx PathHunter D2 beta-arrestin, luminescence, 90 min; 100% = 57 uM dopamine signal; activation, % (concentration not given with the values); hit rate 0.084% among 360,000; in the data active = activation above about 40%; inconclusive = about 15% to 40%; inactive = below about 15%; note: compound concentration not given in the record; the text of the record calls up to 30% inactive
Target sequence (P14416 whole entry, looked up): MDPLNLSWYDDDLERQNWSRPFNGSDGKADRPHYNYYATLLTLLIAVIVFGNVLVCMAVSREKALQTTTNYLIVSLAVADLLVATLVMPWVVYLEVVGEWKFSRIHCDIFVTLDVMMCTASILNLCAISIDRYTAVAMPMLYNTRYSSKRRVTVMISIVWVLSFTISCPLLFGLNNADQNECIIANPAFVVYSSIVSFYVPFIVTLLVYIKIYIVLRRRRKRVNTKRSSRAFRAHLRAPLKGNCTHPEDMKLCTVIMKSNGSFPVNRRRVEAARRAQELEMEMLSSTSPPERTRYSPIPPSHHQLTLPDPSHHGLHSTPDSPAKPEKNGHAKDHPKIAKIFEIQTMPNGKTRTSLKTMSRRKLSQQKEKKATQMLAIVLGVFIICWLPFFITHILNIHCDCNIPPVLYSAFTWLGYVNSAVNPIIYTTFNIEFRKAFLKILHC
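DiscoveRx PathHunter D2 beta-arrestin cells (2,100/well) attached overnight, then compound-stimulated 90 min at 37 C in HBSS/10 mM HEPES/0.1% Tween-20 buffer; beta-galactosidase complementation read by luminescence after 1 h at ambient temperature. Dopamine 57 uM final (EC100) as control.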
PINK1 expr mod: modulators of PINK1 expression; PINK1 immunofluorescence, high-content cytometry, 24 h; Potency, µM (titrated, usually from 76.6 µM), for the others: top-dose activation (PINK1 increase), actives largely listed as activators; hit rate 0.2% among 410,000; AID 624263; active = well fitted activation curve with a large enough effect; inconclusive = small, poorly fitted or top-dose-only effect; inactive = flat fitted curve, though single readings scatter; cell line not stated here;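 note: potency is the fitted concentration of half-maximal effect; % of control where 0% means no effect; nearly all actives have a fitted effect of over 65% in size; a mitochondrial uncoupler was the plate control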
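PINK1 protein, normally rapidly degraded, was detected by immunofluorescence after 24 hour compound treatment of a stable cell line. Titration data (5 concentrations) came from laser-scanning cytometry, with CCCP-treated wells as controls.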
ClpP mod: qHTS Assay for Activators of ClpP; ATP-dependent Clp protease proteolytic subunit (Bacillus subtilis (strain 168)), P80244; purified B. subtilis ClpP, FRET peptide cleavage, 20 min; Potency, µM (doses to about 57.5 µM), for the others: at the highest dose activity change, negative = active; hit rate 1.9% among 340,000; active = well fitted falling curve with a large enough effect; inconclusive = small, poorly fitted or top-dose-only effect; inactive = no such curve, though single readings can be large or run the other way; note: potency is the fitted concentration of half-maximal effect; the source files actives as falling curves though it sought activators and does not explain the sign; nearly all actives have a fitted effect of over 65% in size; many hits overshoot -100%
Target sequence (P80244 whole entry, looked up): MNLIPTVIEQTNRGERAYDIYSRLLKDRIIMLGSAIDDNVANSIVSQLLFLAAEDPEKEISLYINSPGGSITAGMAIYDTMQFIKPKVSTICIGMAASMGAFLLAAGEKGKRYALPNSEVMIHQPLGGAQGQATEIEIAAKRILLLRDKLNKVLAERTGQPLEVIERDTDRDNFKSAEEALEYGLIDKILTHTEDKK
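Purified B. subtilis ClpP, 10 microg/mL final in Tris/HCl pH8 with KCl, BSA, glycerol and Tween-20, cleaved an Abz/nitrotyrosine-quenched decapeptide. Fluorescence (ex 320, em 430) was read at 0 and 20 min at room temperature. Delta was normalized to 5.8 microM ADEP and DMSO/no-enzyme controls.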
Sfp PPTase inh: Sfp phosphopantetheinyl transferase inhibition; Q9F4F7; Biochemical Sfp PPTase activity, qHTS; Potency, µM, inactives show max response, negative = inhibition, hits mostly inhibitors; hit rate 3.5% among 310,000; AID 1490; active = well fitted inhibition curve with a large enough effect; inconclusive = small, poorly fitted or top-dose-only effect, or another doubt; inactive = no such curve, though single readings can be large or run the other way;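 note: the enzyme is Sfp with the accession as filed and its product quenches rhodamine fluorescence; potency is the fitted concentration of half-maximal effect; 0% = enzyme reaction without inhibitor and -100% = no enzyme wells; top concentration of the series not given in the record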
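After 15 min at room temperature with compound, 15 nM Sfp received 5 uM rhodamine-CoA plus 12.5 uM BHQ-2-ybbR (50 mM Hepes pH 7.6, 10 mM MgCl2). Rate came from the fluorescence difference over 30 min, ex 525/em 598 nm.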
gsp agonist: agonists of gsp mutant (McCune-Albright syndrome) | gsp mutant cells, cAMP HTRF, 30 min; control for the full effect not named in the record | Potency, µM (highest dose often 76.9 µM), inactives show at the highest dose activation (cAMP increase), hits mostly activators | hit rate 0.13% among 340,000; active = well fitted activation curve with a large enough effect; inconclusive = small, poorly fitted or top-dose-only effect, or another doubt; inactive = no such curve, though single readings can be large or run the other way; cell line not stated here;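 note: phosphodiesterase inhibitor Ro 20-1724 added with compounds to block cAMP breakdown; potency is the fitted concentration of half-maximal effect; nearly all actives have a fitted effect of over 60% in size; about a fifth of the inactives were tested at one dose only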
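Cells stably selected in G418 were plated at 2000/well, grown 16-24 hr, then given compounds in DMSO with the PDE inhibitor […] (300 uM solution added) for 30 min at 37C; cAMP was read by HTRF.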
Numbers without * were called inactive; ? = inconclusive; / = no result given; & = joins results of further samples; [ ] = another dose, or the depositor's remark.

SMILES	Menin MLL FP FL	gsp antag	D2 ag	PINK1 expr mod	ClpP mod	Sfp PPTase inh	gsp agonist
COCCN(CCOC)c1ncnc2c1cnn2-c1ccccc1	4.5	-3%	-1.2	2.0%	-1.4%	4%	3%
Cc1cccc(N(C(=O)Cn2nnc3ccccc32)C(C(=O)NC(C)(C)C)c2ccsc2)c1 (centres undefined)	0.4	-6%	-0.6	/	0.0%	16%	?
Cc1ccc(NCCC(=O)c2ccc(Cl)cc2)cc1C	-1.5	13%	-2.6	14%[38.3 µM]	0.2%	18%	27%
Oc1oc(-c2ccccc2)nc1C=Nc1ccccc1	5.9	-17%	-0.4	-5.2%[38.3 µM]	-1.0%	-12%	-62%[inhibitor]
CCCC[C@@H]1C=C(C(=O)O)[C@H](c2ccc(C)cc2)N1S(=O)(=O)c1ccc(C)cc1	/	-6%	-0.5	-0.2%	-1.8%	/	/
COc1nc(Cl)cn(-c2ccc(C)cc2)c1=O	5.0	11%	2.1	1.1%	-8.1%	-1%	-17%
COc1ccc2nc(C)cc(NCc3cccc(C(F)(F)F)c3)c2c1	0.8	7%	-5.0	0.1%	/	6%	15%
Cc1c(-c2ccc(F)cc2)nc(N)c(C#N)c1-c1cccnc1	2.7	-5%	-1.5	-0.6%	/	23%	-11%[15.4 µM]
CN(C)CCCNc1cc(Cl)c(S(=O)(=O)N2CCCCC2)cc1C(=O)O	5.5	5%	-0.3	10%[38.3 µM]	-2.2%	15%	-30%
CCC(=O)Nc1ccc(NC(=O)c2ccccn2)cn1	-1.2	-2%	-2.3	0.8%	-0.1%	-21%	-34%[inhibitor]
CCOC(=O)C1=C(N)OC2=C(C(=O)CC(C)(C)C2)C1c1cccs1 (centres undefined)	5.5	-8%	-1.9	-0.5%	2.0%	14%	-1%
CCN(CC)CCNC(=O)c1ccc(NC(=O)c2cn(-c3ccc(F)cc3)nc2-c2cccc(OC)c2)cc1	-2.3	2%	-4.7	-1.4%	/	50µM*	-1%[15.4 µM]
C/C(=N\Nc1nc2c(s1)CCCC2)c1ccc(Cl)cc1	7.3	-5%	5.5	-2.1%	?	50µM*	-14%
CN(C(=O)COC(=O)c1cc2ccccc2oc1=O)C1CCCCC1	/	-4%	6.7	1.9%	3.6%	/	2%
CCN(CC)CCCNC(=O)N[C@@H](Cc1ccccc1)C(=O)O	2.3	0%	-1.6	-1.3%	-0.5%	-6%	0%
COC(=O)c1ccc(CN2CCCC(C(=O)Nc3ccc(-c4ccn[nH]4)cc3)C2)cc1 (centres undefined)	/	7%	-3.3	2.2%	-5.4%	4%	-27%
COc1ccc(CCNC(=O)Cn2cnc3sc(C)c(-c4ccc(F)cc4)c3c2=O)cc1OC	-1.0	/	-5.3	-0.2%	/	-15%	6%[15.4 µM]
CCOC(=O)c1oc2ccccc2c1NC(=O)c1ccc2c(c1)OCO2	-4.2	10%	1.1	11%[38.3 µM]	?	3%	-46%[inhibitor]
O=c1c2ccccc2nnn1Cc1ccc2ccccc2c1	1.0	2%	-1.6	0.8%	-5.9%	8%	-9%[15.4 µM]
CCOc1ccc(S(=O)(=O)Nc2ccc(C(=O)NCC3CCCO3)cc2)cc1 (centres undefined)	/	6%	-2.4	-1.2%	-1.7%	4%	-4%[15.4 µM]
O=C(c1ccco1)N1CCC(c2nc(-c3ccccc3Cl)no2)CC1	2.9	2%	0.1	17%[38.3 µM]	-0.8%	0%	11%
CCCC(=O)Nc1ccc(N2CCOCC2)cc1	3.1	14%	3.0	0.9%	-2.2%	-12%	6%
Cc1c([N+](=O)[O-])cc(C(=O)Nc2ccc(Cc3ccncc3)cc2)cc1[N+](=O)[O-]	3.9	-13%	0.6	0.8%	0.9%	1%	26%
Cc1cccc2nnc(-c3ccccc3)n12	/	-3%	1.1	-1.2%	1.4%	/	11%[15.4 µM]
NC(=O)c1cc(S(=O)(=O)N2CCN(c3cccc(Cl)c3)CC2)cs1	-4.9	14%	6.2	1.8%	-3.6%	11%	7%
CC(OC(=O)C1CCN(S(=O)(=O)c2ccc(Cl)cc2)CC1)C(=O)N1CCc2ccccc21 (centres undefined)	1.8	-14%	-2.7	0.6%	-29%	3%	13%
CCCN(CCC)S(=O)(=O)c1ccc(C(=O)NCc2ccco2)cc1	-4.0	5%	8.6	-2.6%	0.0%	10%	-8%[15.4 µM]
O=C(CSC(=S)N1CCCC1)c1ccccc1	-3.3	-2%	-2.3	-0.8%	0.6%	-2%	-1%
O=C(CN1C(=O)CSC1=O)NC1CCCCC1	2.9	-8%	-1.2	-2.8%	-0.6%	18%	-1%
Cc1ccc(Oc2ccc(-c3nc(N)nc(N)n3)cc2)cc1	6.2	-21%	-2.2	3.0%	0.4%	10%	1%
COc1ccc2c3c([nH]c2c1)C1CC2C(CC(O)C(OC)C2C(=O)O)CN1CC3 (centres undefined)	?	-9%	-2.8	1.8%	-19%	5%	/
CCCn1c(CN2CCN(C(=O)OCC)CC2)nc2cc(NC(=O)C(C)C)ccc21	3.9	8%	3.2	6.7%	-4.5%	15%	6%
N#Cc1ccccc1OCC(O)CS(=O)(=O)c1ccccc1 (centres undefined)	-0.9	5%	-5.8	2.4%	-0.4%	-11%	-2%[15.4 µM]
O=C(CCn1c(=O)c2cccn2c2ccc(F)cc21)NCCc1ccccc1	/	-7%	-1.3	4.1%&0.8%	-22%&-22%	-6%	17%
Cn1cncc1C(=O)c1ccccc1	3.0	3%	-9.3	0.4%	/	0%	0%[15.4 µM]
COCCCn1c(C)nc2c(c1=O)c1nc3ccccc3nc1n2CCc1ccccc1	-1.3	1%	-1.7	6.7%	?	11%	-29%
N#Cc1ccc(S(=O)(=O)N2CCC(N3CCCCC3)CC2)cc1	-1.8	10%	-3.5	0.2%	/	5%	-11%[15.4 µM]
COC(=O)c1ccc(C(=O)OC)c(NC(=O)CSc2nc(-c3ccco3)cc(C(F)(F)F)n2)c1	/	6%	0.7	0.7%	-3.6%	/	4%
O=C(N/N=C/c1cc(Br)c(O)c(Br)c1O)c1ccc2c(c1)OCCO2	18	?	-2.1	0.5%	/	?	-4%[15.4 µM]
Cc1ccc(S(=O)(=O)Nc2c(NC3CCCCC3)c3ccccc3oc2=O)c(C)c1	/	-11%	-0.1	-1.8%	-4.8%	10%	-4%
COc1ccc(S(=O)(=O)Nc2ccc3c(c2)C(=O)N([C@H](C)CO)C[C@H](C)[C@H](CN(C)Cc2ccc(C(=O)O)cc2)O3)cc1	/	5%	-2.4	0.2%	-1.9%	/	/
Cc1ccc2nc(NCCCO)nc(-c3ccccc3)c2c1	-0.3	-17%	-0.4	-2.0%	-20%	4%	21%
CCOC(=O)c1c(C)c(C(=O)NCc2cccnc2)c(C)n1CC	1.0	-10%	-3.7	1.8%[38.3 µM]	0.7%	-3%	23%
CC1=C(C(=O)OCc2ccccc2)C(c2ccc(C(F)(F)F)cc2)NC(=O)N1CCCCCC(=O)O (centres undefined)	-6.2&1.4	?	-0.3	-0.7%	2.7%	-6%&14%	/
CCOC(=O)C1=C(C)Nc2nc(SCC)[nH]c(=O)c2C1c1ccncc1 (centres undefined)	2.2	-10%	-2.2	-3.5%	-13%	0%	-4%
COc1cccc(Nc2nnc(SCC3CCCCO3)s2)c1 (centres undefined)	-0.3	-4%	-0.4	-0.4%	-0.6%	5%	28%
Cc1ccsc1-c1nc(CN2CCN(C)C(=O)[C@@H]2C)c(C)o1	-6.1	9%	-0.8	-1.5%	/	-1%	7%
CCC(C)NC(=O)C1CCC(=O)N1Cc1ccc(C)cc1 (centres undefined)	0.1	4%	-0.3	-0.3%	-1.6%	11%	-35%[inhibitor]
O=c1oc2c(CN3CCOCC3)c(O)c(Cl)cc2c2c1CCCC2	?	2%	0.8	-0.3%	46%	56µM*	?
NC(=O)c1cc(-c2ccccc2)nc(N2CCOCC2)n1	1.0	-8%	-2.0	-0.1%	3.0%	10%	-4%
COc1ccc(-c2ccc(CN3C(C(C)C)C(=O)N(Cc4cn(CC5CCCCC5)nn4)CCS3(=O)=O)cc2)cc1 (centres undefined)	/	/	-1.2	-2.2%	-6.4%	/	?
C=CCN(CC(=O)NC1CC1)S(=O)(=O)c1cccc(C(F)(F)F)c1	/	17%	-2.7	1.5%	0.5%	/	34%
Cc1ccc(Sc2cc(C(F)(F)F)nc(N(C)C)n2)cc1	-2.0	10%	-2.2	11%	-3.0%	7%	-24%
Cc1cccc(-c2cc(C(=O)Nc3ccc4c(c3)OCCO4)c3ccccc3n2)c1	5.0	-2%	0.1	0.1%	-11%	-5%	2%
CCOC(=O)C1=C2c3ccc4ccccc4c3CC(C)(C)N2C(=O)C1=O	5.2	-10%	-0.5	3.5%	-5.6%	-17%	-4%
COc1cc(NC(=O)c2ccc(=O)[nH]n2)cc(OC)c1OC	-4.8	11%	0.8	1.0%	/	12%	?
COc1ccc(OCc2nc3ccccc3[nH]2)cc1	-1.3	9%	-0.4	/	0.3%	13%	-11%
COc1ccc(/C=C2\N=C(C)N(c3ccc(C(=O)O)cc3)C2=O)cc1OC	/	10%	1.8	1.4%	-0.5%	4%	15%
COc1cccc(Cn2c(=O)c(-c3ccc(Cl)cc3)nc3cnc(OC)nc32)c1	-2.4	/	/	4.8%	/	-8%	/
COc1cc(/C=C2\C(=O)N(c3cccc(C(=O)O)c3)N=C2C)ccc1OCc1ccccc1	/	/	-1.6	4.4%	-0.5%	/	-1%
(listing goes on)
SMILES	Menin MLL FP FL	gsp antag	D2 ag	PINK1 expr mod	ClpP mod	Sfp PPTase inh	gsp agonist
Cc1ccc(C)c(S(=O)(=O)N2CCCC2CNC(=O)C(=O)NC2CC2)c1 (centres undefined)	/	11%	-0.5	-1.9%	1.1%	/	17%
COc1ccccc1C/C(N)=N/OC(=O)COc1cccc(C)c1C	-2.8	5%	-2.1	6.0%	/	-7%	17%
CCOC(=O)c1nn(-c2ccccc2)c(C#N)c1N	-2.4	-3%	-0.7	1.1%	/	10%	6%
COc1cc(Cl)c(C)cc1NC(=O)Cc1ccc(OC)c(OC)c1	-1.7	-7%	9.2	1.6%	/	-21%	-8%[15.4 µM]
